Source: PubChem BioAssay
Six1-Eya2 blk – qHTS Assay for Inhibitors of the Six1/Eya2 Interaction; Homeobox protein SIX1 (Homo sapiens) + Protein phosphatase EYA2 (Homo sapiens), …; AlphaScreen GST-Six1/His-Eya2 binding, biochemical; stronger effect = lower value; control for the full effect not named in the record; activity change, % (no concentration beside the values); 360,000 tested, 0.56% active; AID 651725, 2012; in the data active = activity change below about -65%; inconclusive = about -30% to -65%; inactive = above about -30%; note: % is set by controls: 0 for no effect and ±100 for the full control effect; compound concentration not given in the record
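AlphaScreen with GST-Six1 and His-Eya2 (5X mix: 250 nM and 500 nM), glutathione donor and nickel acceptor beads; buffer 50 mM Tris pH 8.0, 300 mM NaCl, 1 mM TCEP; 1 h at 37 C in the dark.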
TRPML1 inh – qHTS for Inhibitors of the Human Mucolipin Transient Receptor Potential 1 (TRPML1). Mucolipin-1 (Homo sapiens), Q9GZU1. TRPML1-inducible cells, Ca2+ dye fluorescence, FDSS; stronger effect = lower value; inhibition of EC80 agonist-evoked calcium signal. activity change, negative = inhibition, % (no concentration beside the values). 390,000 tested, 0.02% active. AID 624415, 2012; in the data active means activity change below about -50%; inconclusive means about -30% to -50%; inactive means above about -30%;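 note: stimulus is agonist 54-4 at its EC80 concentration; % is set by controls: 0 for no effect and ±100 for the full control effect; compound concentration not given in the record; the text of the record puts the active cut at -80%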
Target sequence (Q9GZU1 whole entry, looked up): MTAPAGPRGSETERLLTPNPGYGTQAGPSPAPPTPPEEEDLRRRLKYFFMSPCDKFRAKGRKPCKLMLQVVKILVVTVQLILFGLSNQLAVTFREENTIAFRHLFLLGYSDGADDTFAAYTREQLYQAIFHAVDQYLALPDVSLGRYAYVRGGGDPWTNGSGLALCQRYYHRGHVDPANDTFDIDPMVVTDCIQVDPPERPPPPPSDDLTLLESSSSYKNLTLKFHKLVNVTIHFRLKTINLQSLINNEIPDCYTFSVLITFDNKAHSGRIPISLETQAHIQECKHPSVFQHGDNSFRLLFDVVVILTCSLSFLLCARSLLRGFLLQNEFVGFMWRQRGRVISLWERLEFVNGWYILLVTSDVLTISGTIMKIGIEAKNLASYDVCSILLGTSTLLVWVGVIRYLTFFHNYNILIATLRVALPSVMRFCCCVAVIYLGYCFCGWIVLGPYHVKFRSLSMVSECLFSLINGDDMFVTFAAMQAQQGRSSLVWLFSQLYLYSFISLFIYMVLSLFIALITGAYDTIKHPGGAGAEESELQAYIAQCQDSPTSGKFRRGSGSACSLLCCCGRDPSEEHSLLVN
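TRPML1-DL cells, Tet-induced overnight (~16 h, 37 °C) at 1,500 cells/well, were loaded with Ca8 no-wash dye plus quencher for 45-90 min at room temperature. Compounds were pinned during FDSS kinetic reading; agonist 54-4 at EC80 (4 uM final) then added.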
D2 ag – Beta-Arrestin HTS for Positive Allosteric Modulators of the Human D2 Dopamine Receptor: Agonists; DiscoveRx PathHunter D2 beta-arrestin, luminescence, 90 min; 100% = 57 uM dopamine signal; activation, % (no concentration beside the values); 360,000 tested, 0.084% active; in the data active = activation above about 40%; inconclusive = about 15% to 40%; inactive = below about 15%; note: compound concentration not given in the record; the text of the record calls up to 30% inactive
Target sequence (P14416 whole entry, looked up): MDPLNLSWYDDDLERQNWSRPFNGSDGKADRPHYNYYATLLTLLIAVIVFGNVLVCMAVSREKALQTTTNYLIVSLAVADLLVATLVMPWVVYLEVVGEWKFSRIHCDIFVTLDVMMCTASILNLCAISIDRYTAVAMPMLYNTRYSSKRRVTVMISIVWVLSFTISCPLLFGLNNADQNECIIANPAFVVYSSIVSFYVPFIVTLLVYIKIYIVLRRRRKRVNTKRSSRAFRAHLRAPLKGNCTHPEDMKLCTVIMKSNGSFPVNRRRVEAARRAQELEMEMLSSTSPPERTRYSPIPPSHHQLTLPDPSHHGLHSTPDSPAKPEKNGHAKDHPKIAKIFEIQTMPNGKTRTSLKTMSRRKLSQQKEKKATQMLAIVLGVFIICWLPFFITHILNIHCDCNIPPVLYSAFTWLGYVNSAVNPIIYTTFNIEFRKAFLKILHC
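Agonist mode: compounds alone added to overnight-plated D2 PathHunter cells for 90 min at 37 C, with 57 uM final dopamine (EC100) defining full response. Beta-arrestin recruitment detected by chemiluminescent reagent, read after 1 h at ambient temperature.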
D2 potentiator – Beta-Arrestin HTS for Positive Allosteric Modulators of the Human D2 Dopamine Receptor: Potentiators; DiscoveRx D2 beta-arrestin cells, luminescence, 90 min; 100% = 57 uM dopamine signal; 360,000 tested, 0.23% active; D(2) dopamine receptor (Homo sapiens), P14416; potentiation, % (concentration not given with the values); AID 624464, 2012; active = potentiation of 50% or more; inconclusive = 30% to 50%; inactive = 30% or less;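 note: compound concentration not given in the record; tested on top of an EC20 dose of dopamine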
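D2 cells co-treated with compound plus 50 nM dopamine (EC20) for 90 min at 37 deg C to detect potentiation. Beta-arrestin recruitment was read as enzyme-fragment luminescence after 1 h at ambient temperature. Full response was set by 57 uM dopamine.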
PINK1 expr mod – A Quantitative High throughput Screen to Identify Chemical Modulators of PINK1 Expression. Potency, µM (highest dose often 76.6 µM), for inactives: at the highest dose activation (PINK1 increase), actives largely listed as activators. 410,000 tested, 0.2% active. PINK1 immunofluorescence, high-content cytometry, 24 h; active = well fitted activation curve with a large enough effect; inconclusive = small, poorly fitted or top-dose-only effect; inactive = flat fitted curve, though single readings scatter; cell line not stated here;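 note: potency is the fitted concentration of half-maximal effect; % of control where 0% means no effect; nearly all actives have a fitted effect of over 65% in size; a mitochondrial uncoupler was the plate control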
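A stable cell line was treated with compounds at 5 concentrations for 24 hours, with CCCP as control. PINK1 levels and mitochondrial localization were measured by immunofluorescence with mitochondrial, cell and nuclear markers after fixation, read by laser-scanning cytometry.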
TRPML1 agonist – qHTS for Agonists of the Human Mucolipin Transient Receptor Potential 1 (TRPML1) | AID 624414, 2012 | 410,000 tested, 0.12% active | TRPML1-expressing cells, Ca2+ dye fluorescence, FDSS; host cell line not named in the record; reference of the full effect not given here | activation, % (no concentration beside the values); in the data active = activation above about 50%; inconclusive = about 30% to 50%; inactive = below about 30%; note: 0% is about no effect; the text of the record puts the active cut at 80%
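TRPML1-DL cells, Tet-induced overnight (~16 h, 37 degrees C), loaded 45-90 min at room temperature with Ca8 no-wash calcium dye plus quencher. FDSS fluorescence: 10 s baseline, compound pin-transfer, 110 s agonist read, then EC80 54-4 (4uM final) and 110 s antagonist read.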
An asterisk follows results filed as active; ? = inconclusive; . = not tested or not shown; [ ] = another dose, or the depositor's remark.

mol	D2 potentiator	TRPML1 agonist	Six1-Eya2 blk	D2 ag	PINK1 expr mod	TRPML1 inh
Cc1ccc(-c2noc(CN(C(=O)c3ccc(C(C)(C)C)cc3)C(C)C)n2)cc1	.	-0.4	.	.	22.5%	7.8
O=[N+]([O-])c1cc([N+](=O)[O-])c2nonc2c1Nc1ccccc1O	-9.9	2.7	-0.5	3.8	-1.8%	2.2
Cc1ccc(C(=O)NCC(=O)Nc2cccc(S(=O)(=O)NC3=NCCCCC3)c2)cc1C	-5.5	-0.1	-6.0	-0.4	-1.4%	2.2
CSc1nc2[nH]c3c(c2c2nncn12)CC(C)(C)OC3	-4.3	0.2	-25.4	-1.3	-2.9%	-7.6
CC(C)Oc1cccc(C(=O)C2CCCN(C(=O)c3noc4c3CCCC4)C2)c1 (configuration not stated)	-1.8	3.2	2.0	2.1	3.2%	5.2
CC(O)(c1ccc(F)c(F)c1)c1nc(-c2cc3ccccc3o2)cs1 (configuration not stated)	-1.8	0.8	4.1	3.7	?	.
CS(=O)(=O)N1N=C(c2ccc3nccnc3c2)CC1c1ccccc1 (configuration not stated)	-3.3	0.5	2.9	3.2	-1.8%[38.3 µM]	7.7
Nc1nc(SCc2nc3scc(-c4ccccc4)c3c(=O)[nH]2)n[nH]1	-10.3	0.2	-1.2	-0.6	2.9%[38.3 µM]	-12.0
O=C(CCc1ccccc1)OCCOC(=O)CCc1ccccc1	-1.4	-0.6	36.7	-0.5	1.5%	-1.2
COC(=O)C(C)Sc1nc2ccsc2c(=O)n1Cc1ccccc1 (configuration not stated)	-9.8	3.0	7.8	-4.1	1.1%	13.4
CN(Cc1ccc(Cl)cc1Cl)C(=O)Cc1ccc(S(=O)(=O)N2CCOCC2)s1	-4.5	0.2	3.1	-1.3	0.1%	-0.1
COc1ccc(N2CCN(c3ccc(-c4nc(-c5ccccc5C)no4)cc3[N+](=O)[O-])CC2)cc1	.	-0.7	.	.	0.9%	13.1
Cn1c(SSc2ccc(-c3cccnc3)n2C)ccc1-c1cccnc1	-34.8	-0.3	-15.9	-15.8	?	29.9
O=C(Nc1ccnc(-c2ccncc2)n1)c1cccs1	-0.8	-0.6	-0.5	-5.8	1.3%	0.6
CC(=O)n1nc(-c2ccccc2)nc1NCc1ccc(F)cc1	-26.7	1.5	5.5	-2.5	-2.2%	-5.7
O=C(N/N=C/c1ccc(N2CCOCC2)s1)c1ccccc1Br	0.0	-0.6	9.5	-1.2	1.5%	-6.4
Cc1cc(Cl)ccc1NC(=S)N1CCN(Cc2ccc3c(c2)OCO3)CC1	-18.8	0.8	-19.1	-0.2	-1.6%	-3.3
O=C(Nc1nccs1)c1ccc(S(=O)(=O)N2CCOCC2)cc1	-2.4	-0.4	1.9	3.9	2.3%	-9.0
COc1ccc(CN2CCNC(=O)C2CC(=O)N2CCCCO2)cc1OC (configuration not stated)	-1.6	0.4	7.4	-1.8	1.1%	-8.6
CCCCc1cc(=O)oc2cc(OC(C)C(=O)NCC3CCC(C(=O)O)CC3)c(Cl)cc12 (configuration not stated)	-26.8	.	-6.7	-4.7	0.0%	.

2 compounds from above, showing only PINK1 expr mod:
SMILES	PINK1 expr mod
CC(=O)n1nc(-c2ccccc2)nc1NCc1ccc(F)cc1	-2.2%
O=C(N/N=C/c1ccc(N2CCOCC2)s1)c1ccccc1Br	1.5%

Additional structures follow:
mol	D2 potentiator	TRPML1 agonist	Six1-Eya2 blk	D2 ag	PINK1 expr mod	TRPML1 inh
COc1ccc(/C=N/NC(=O)c2ccc(NC(=O)C3CCCCC3)cc2)cc1O	11.5	-0.6	-7.7	1.7	-1.2%	8.5
Fc1ccc2nc3n(c2c1F)CCCCCC3	-5.4	0.1	7.8	0.3	.	1.0
Cc1noc(NS(=O)(=O)c2ccc(NC(=O)Cc3ccc([N+](=O)[O-])cc3)cc2)c1C	-2.1	-0.2	9.8	-8.2	0.0%	-1.9
CC(C)C[C@@H](CN)NC(=O)c1nc[nH]c1C(=O)N[C@@H](CC(=O)O)C(=O)CNC[C@H](C)NC(=O)c1nc[nH]c1C(=O)N[C@@H](CC(=O)O)C(=O)O	-2.4	-0.5	-25.0	-1.3	2.0%	-12.3
NC1=NC(=O)/C(=C/c2ccccc2OS(=O)(=O)c2ccc3ccccc3c2)S1	-1.2	1.0	6.3	-0.8	4.3%	-7.8
CCOC(=O)c1cc(-c2ccccc2)n(CC(=O)Nc2ccc(OCC)cc2)c1C	-16.7	0.5	0.6	-0.3	12.4%	-29.3
CCCCNC(=O)c1nnn(-c2ccccc2)c1N	-9.6	-0.3	5.1	-2.3	-1.1%	28.0
Cn1c(=O)c2c(-c3ccccc3)n(-c3cccc(O)c3)cc2n(C)c1=O	11.4	-0.5	-28.9	13.4	-0.4%	.
CC1CN(C(=O)c2cn3ccccc3n2)CC(C)O1 (configuration not stated)	8.6	0.3	-1.1	1.4	-0.3%	-21.3
COCCn1c(=O)[nH]c2cc(C(=O)N3CCN(c4ccc(F)cc4)CC3)ccc2c1=O	.	0.5	.	.	-0.4%	-1.2
O=C(NCc1ccc(Cl)cc1)c1ccc(CSCc2cccc(Cl)c2)o1	.	2.7	.	.	?	17.7
Cn1c(-c2ccc(F)cc2)cc2onc(-c3c(F)cccc3Cl)c2c1=O	.	-0.3	-0.2	-3.5	-0.4%	9.3
CCOc1ccc(-c2cc3nc(C4CCN(C(=O)OC(C)(C)C)CC4)c(C(=O)Nc4cccc(CC)c4)cn3n2)cc1	.	0.6	.	.	4.4%	12.1
C#CCn1c(=NC(=O)c2cc(-c3cccs3)nc3ccccc23)sc2cc(S(N)(=O)=O)ccc21	7.4	0.2	4.8	0.5	6.0%	-26.9
CCOc1ccc(C(=O)Nc2ccc(NC(=O)c3ccco3)c(Cl)c2)cc1Br	0.8	2.0	1.8	8.0	?	-10.0
CC(=O)c1cc(-c2ccccc2)n(CC(=O)Nc2cccc(C)c2C)c1C	-1.2	1.3	2.7	1.0	-0.7%	11.2
NC(=O)c1ccsc1NC(=O)COC(=O)c1c(F)cccc1Cl	1.5	1.0	4.5	-6.5	-1.7%	2.2
COc1cccc(CNC(=O)CN2C(=O)CCc3cc(S(=O)(=O)N4CCOCC4)ccc32)c1	.	0.3	.	.	-0.1%	15.7
N/C(=N\OC(=O)c1ccc(Cl)cc1)c1ccccn1	16.2	0.4	-0.2	14.6	4.7%[38.3 µM]	-12.0
CCOC(=O)c1sc(NC(=O)C2CCC2)cc1C	-14.5	1.1	21.7	-7.5	-1.0%	-17.9

As entered above:
CCOC(=O)c1cc(-c2ccccc2)n(CC(=O)Nc2ccc(OCC)cc2)c1C in TRPML1 agonist = 0.5
Fc1ccc2nc3n(c2c1F)CCCCCC3 in D2 potentiator = -5.4

Going on with the list.
mol	D2 potentiator	TRPML1 agonist	Six1-Eya2 blk	D2 ag	PINK1 expr mod	TRPML1 inh
CC(=O)Nc1ccc(N2C(=O)CSC2c2ccccc2[N+](=O)[O-])cc1 (configuration not stated)	-3.4	-0.8	-0.6	-3.0	1.2%	-3.7
Cc1ccc(Nc2nc(-c3ccc(C)cc3)c(CC(=O)O)s2)cc1	-1.0	0.8	-0.4	-1.8	4.6%	54.4
CCOc1ccc(S(=O)(=O)NN)cc1	-9.5	-0.6	-0.1	-1.7	-0.8%	-5.8
COc1cc(NC(=O)Nc2nnc([C@H]3C[C@H](O)[C@@H](CO)O3)s2)cc(OC)c1OC	0.8	-0.7	-2.5	-4.4	-0.4%	.
O=CNc1ccccc1	-13.8	-0.4	1.9	2.3	1.5%	-9.0
COc1cccc(C2(O)CCN(C(=O)Cc3cccnc3)CC2)c1	0.0	0.4	6.7	0.3	0.4%	7.4
S=c1[nH]c2ncccc2o1	-13.5	-0.4	3.9	-2.3	1.5%[38.3 µM]	8.4
CCN(CC)CCNc1cc(C)nc2c1C(=O)C(=O)C=C2N1CCCCC1	-1.5	-0.4	4.0	1.7	-0.2%	11.9
Nc1ccn([C@@H]2O[C@H](CNCc3cnc(N4CCOCC4)nc3)[C@@H](O)[C@H]2O)c(=O)n1	-0.2	-0.3	-1.3	-3.4	0.3%	4.6
O=C(Cc1ccccc1[N+](=O)[O-])NCCc1ccc(F)cc1	-3.0	-1.3	5.9	-1.8	-1.2%	2.4

5 entries from above, reformatted.
Values run as follows: D2 potentiator	TRPML1 agonist	Six1-Eya2 blk	D2 ag	PINK1 expr mod	TRPML1 inh
> CC(=O)Nc1ccc(N2C(=O)CSC2c2ccccc2[N+](=O)[O-])cc1 (configuration not stated)
    -3.4	-0.8	-0.6	-3.0	1.2%	-3.7
> Cc1ccc(Nc2nc(-c3ccc(C)cc3)c(CC(=O)O)s2)cc1
    -1.0	0.8	-0.4	-1.8	4.6%	54.4
> CCOc1ccc(S(=O)(=O)NN)cc1
    -9.5	-0.6	-0.1	-1.7	-0.8%	-5.8
> COc1cc(NC(=O)Nc2nnc([C@H]3C[C@H](O)[C@@H](CO)O3)s2)cc(OC)c1OC
    0.8	-0.7	-2.5	-4.4	-0.4%	.
> O=CNc1ccccc1
    -13.8	-0.4	1.9	2.3	1.5%	-9.0

Going on with the list:
mol	D2 potentiator	TRPML1 agonist	Six1-Eya2 blk	D2 ag	PINK1 expr mod	TRPML1 inh
O=C(NCCN1CCN(c2ccccc2)CC1)C1CCN(S(=O)(=O)c2cccc3nsnc23)CC1	-1.4	1.3	1.7	?	3.8%	28.3
CC1(C)C(=O)C2(CCCCC2)C(=O)OC1c1cccn1-c1ccc([N+](=O)[O-])cc1 (configuration not stated)	-18.3	-0.1	-3.5	-3.0	12.7%	-9.2
COc1ccc(-c2noc(CNC(=O)CCCN3C(=O)[C@H]4CC=CC[C@H]4C3=O)n2)cc1	-4.1	0.3	-0.6	0.4	-0.4%	57.0
O=C(NC(=S)Nc1ccc(N2CCCCC2)cc1)c1cccs1	-14.4	1.1	-67.1*	-2.1	5.9%[38.3 µM]	-17.1
Oc1[nH]c2ccccc2c1N=Nc1ccccc1	-10.3	0.7	-11.0	-4.1	0.9%	15.6
COc1cc2c(cc1OC)CN(CC(=O)Nc1cccc([N+](=O)[O-])c1)CC2	-16.7	1.5	-0.6	0.1	0.6%	-22.4
